# Compound activity (PubChem BioAssay)
# GALR2 ag – GALR2 (human) receptor agonism. hit rate 0.48% among 140,000. O43603. AID 803. GALR2-expressing cells, agonist activation read-out. activation, %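 (tested at 5 µM)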;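 active = above mean plus 3 SD of all compounds, about 5% in these data, not always enough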;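 note: 0% = vehicle buffer wells and 100% = reference agonist at full effect; tested in CHO reporter cells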
# Target sequence (O43603 whole entry, looked up): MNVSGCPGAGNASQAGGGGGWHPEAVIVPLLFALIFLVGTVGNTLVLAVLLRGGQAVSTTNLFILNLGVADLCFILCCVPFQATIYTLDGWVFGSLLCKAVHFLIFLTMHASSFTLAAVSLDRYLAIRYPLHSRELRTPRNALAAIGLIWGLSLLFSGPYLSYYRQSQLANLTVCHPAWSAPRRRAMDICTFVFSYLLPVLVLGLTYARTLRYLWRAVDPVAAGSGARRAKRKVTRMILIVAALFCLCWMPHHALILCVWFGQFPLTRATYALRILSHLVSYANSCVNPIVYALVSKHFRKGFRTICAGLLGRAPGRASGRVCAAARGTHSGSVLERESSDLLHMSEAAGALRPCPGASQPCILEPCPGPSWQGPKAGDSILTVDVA
# RGS16-Gao – modulates binding between human RGS16 and Galphao; binding response (% of control), % at 10 µM; O15492+P09471; hit rate 0.38% among 220,000; bead-based flow cytometry RGS16-Galphao binding, fluorescence; actives lie on both sides; AID 1441;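 active = below 25% or above 175%, edge rows of some plates excepted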;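 note: Galphao activated by GDP with aluminum fluoride before binding; 100% = wells without compound and 0% = beads without RGS; some results beyond the cut were filed as inactive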
# Target sequence (O15492 whole entry, looked up): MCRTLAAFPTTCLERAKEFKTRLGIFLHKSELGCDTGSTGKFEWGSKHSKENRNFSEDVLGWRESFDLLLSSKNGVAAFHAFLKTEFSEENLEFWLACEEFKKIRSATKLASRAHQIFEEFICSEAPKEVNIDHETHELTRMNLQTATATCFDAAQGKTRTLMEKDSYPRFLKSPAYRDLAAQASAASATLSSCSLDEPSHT
# Target sequence (P09471 whole entry, looked up): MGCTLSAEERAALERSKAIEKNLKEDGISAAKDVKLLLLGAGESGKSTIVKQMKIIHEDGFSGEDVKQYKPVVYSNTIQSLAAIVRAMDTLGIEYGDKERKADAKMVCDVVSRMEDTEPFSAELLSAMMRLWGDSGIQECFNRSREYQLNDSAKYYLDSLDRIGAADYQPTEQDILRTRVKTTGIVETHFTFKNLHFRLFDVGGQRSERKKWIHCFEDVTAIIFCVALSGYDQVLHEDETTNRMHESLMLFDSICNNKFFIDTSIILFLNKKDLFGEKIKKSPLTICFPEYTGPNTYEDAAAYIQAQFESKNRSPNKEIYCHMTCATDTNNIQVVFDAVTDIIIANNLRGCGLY
# PKD1 kinase inh – PKD1 (human) kinase inhibition; hit rate 0.056% among 200,000; Q15139; PKD1 kinase fluorescence polarization assay; inhibition, %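 (about 10 µM by stock and volumes)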;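 active = inhibition of 50% or more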;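 note: controls were vehicle for no effect and a reference inhibitor for full effect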
# Insulin prom inh – TRM-6 insulin promoter activity inhibition; inhibition, % at 2 µM; TRM-6 cells (human fetal islet line), insulin promoter-eGFP reporter, imaging; reporter expression induced with tamoxifen; hit rate 0.9% among 130,000; AID 1273;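 active = inhibition above the mean plus 3 SD, with well images judged a real hit on visual review, cut at about 60% in these data, passing the limit was not always enough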
# HSV replic up – increases HSV replication in cells. HSV replication augmentation in cells, fold increase. maximum fold increase. hit rate 0.005% among 220,000;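 active = peak rise of 1.5-fold or more in the series; tested in PC3 cells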;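 note: first round at 10 µM; read as green reporter fluorescence; hits show the peak of a series up to 25 µM; 1 = signal of infected wells without compound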
# Insulin prom inh cell count – recorded beside Insulin prom inh, whose call it bears; normalized cell count, %; measured here: cell count, toxicity; reference of the scale not given here;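 cells exposed to compound for 48 h; stained nuclei by imaging scaled within each plate; lower means fewer cells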
# HSV replic up primary fold – also measured in HSV replic up; calls as there; fold increase; compound at 10 µM; measured here: primary screen fold increase 10 uM; tested in PC3 cells;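 GFP signal in the first replicate; 1 = infected wells without compound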
# Numbers without * were called inactive; i = inactive; x = not tested or not shown.
SMILES,GALR2 ag,RGS16-Gao,PKD1 kinase inh,Insulin prom inh,Insulin prom inh cell count,HSV replic up,HSV replic up primary fold
Cc1ccc(N(C(=O)C(F)(F)F)C(C(=O)NC2CCCCC2)c2cccs2)cc1C (stereo not drawn),-3.5,110.5,-5.2,0.0,144.9,i,1.09
COc1ccc(S(=O)(=O)N2CCN(CCO)CC2)cc1-c1nnc2c3ccccc3c(C)nn12,-2.4,100.1,-12.9,x,x,i,0.95
Cc1cc(NC(=O)CSc2ccc3nnc(CCNS(=O)(=O)c4ccccc4)n3n2)no1,x,106.3,-7.2,-92.3,83.5,i,0.85
COc1ccc(Nc2ccc(S(=O)(=O)N3CCCCC3)cc2[N+](=O)[O-])cc1Cl,-1.8,106.8,-7.3,x,x,i,1.4
Cc1ccccc1NC(=O)C1C2C=CC(C3CC23)C1C(=O)O (stereo not drawn),x,100.5,-11.0,29.4,62.0,i,0.95
Cc1cc(C=C2C(=O)CCCC2=O)c(C)n1-c1ccccc1,-0.2,94.6,-4.8,x,x,i,1.49
Cc1ccc(C(=O)COC(=O)CNC(=O)c2ccc(Br)o2)cc1[N+](=O)[O-],x,99.3,x,x,x,i,1.12
O=C(Nc1ccc(S(=O)(=O)Nc2ncccn2)cc1)c1ccc(Br)s1,-3.3,95.8,-7.7,30.9,103.8,i,1.06
Cc1nn(-c2ccccc2)c(NC(=O)C(C)C)c(-c2ccccc2)c1=O,x,105.4,x,x,x,i,1.05
COc1cc(-c2noc(CCCC(=O)Nc3cccnc3)n2)cc(OC)c1OC,x,103.3,x,x,x,i,1.02
COC(=O)C1=CNC=C(C(=O)OC)C1c1ccc(C(=O)OC)cc1,1.2,99.1,-10.2,26.1,120.2,i,0.92
COc1cc([N+](=O)[O-])cc2sc(NC(C)=O)nc12,x,92.3,x,x,x,i,1.04
CCCCNC(=O)CSc1nc2ccsc2c(=O)n1CCCC(=O)NCCc1ccc(S(N)(=O)=O)cc1,x,105.8,-10.6,40.5,107.0,i,0.92
CCCC(=O)Nc1ccc(Cl)c(NC(=S)NC(=O)C(C)C)c1,x,95.8,6.2,x,x,i,1.03
COc1ccc(CNC(=O)c2ccccc2SC)cc1,-1.3,103.5,1.2,-258.8,95.2,i,0.91
OC(CN1CCCCC1)CN1CCCCC1,-2.7,99.6,2.3,-5.6,120.0,i,1.06
Cc1ccccc1CNc1ccc(C(CC(N)=O)NC(=O)c2ccccc2)cc1[N+](=O)[O-] (stereo not drawn),x,117.0,x,x,x,i,0.86
CC(C)C(OC(=O)c1cccs1)C(=O)NCc1ccccc1 (stereo not drawn),x,102.5,-8.2,-17.9,65.7,i,1.01
Cc1ccc(S(=O)(=O)NC(=O)NC(C)(C)C)cc1,-0.9,100.0,-17.7,x,x,i,0.95
COc1ccc(/C=N/NC(=O)c2ccco2)cc1Cn1nc(C)cc1C,-0.5,136.3,-12.1,-62.5,70.7,i,1.04
COC(=O)c1cc(CSc2nnc(-c3ccccc3)c(-c3ccccc3)n2)oc1C,-0.4,107.8,-12.3,x,x,i,0.88
Cc1ccc(C2C(C#N)=C(N)OC3=C2C(=O)CCC3)s1 (stereo not drawn),x,101.6,-3.4,x,x,i,0.94
NS(=O)(=O)c1ccc(CCNC(=O)COC(=O)/C=C/c2ccc(Cl)cc2)cc1,x,110.3,2.6,-23.1,90.5,i,0.96
Clc1cccc(CSc2nnc([C@@H]3CCCN3)o2)c1,-1.4,101.1,-4.1,x,x,i,1.04
COc1ccc(OC)c(N/C(=N/c2nc(C)cc(C)n2)NC(C)=O)c1,x,99.6,x,x,x,i,0.88
COc1ccc(/C=N/N2CCOCC2)cc1OCc1ccccc1,x,101.5,-3.9,x,x,i,0.94
CCCCCCCCCCCCOC1OC(CO)C(O)C(O)C1NC(C)=O (stereo not drawn),-1.6,105.0,-0.1,45.5,62.8,i,1.05
CC(C)(C)c1nc2ccccc2[nH]1,-1.9,105.6,-6.5,79.7*,195.0*,i,0.997
Cc1c(Cl)cccc1NC(=O)CN1CCC(C(O)(c2ccccc2)c2ccccc2)CC1,0.5,119.7,-2.5,0.0,119.9,i,0.98
S=c1[nH]nc(-c2cccnc2)n1/N=C/C(Cl)=C\c1ccccc1,0.3,74.0,2.8,5.3,137.4,i,0.72
COc1cc(OC)c(NC(C)C(=O)NCc2ccccc2)cc1Cl (stereo not drawn),x,92.0,6.0,9.1,115.5,i,0.95
Cc1ccccc1C(=O)Nc1ccc(-c2nnc(SC(C)C(=O)O)n2C)cc1 (stereo not drawn),x,98.7,x,x,x,i,0.94
COc1ccc(/C=N/NC(=O)CNc2ccc(Br)cc2)c(C(=O)O)c1OC,x,107.1,-5.9,21.4,66.2,x,x
CCCS(=O)(=O)N1CCN(Cc2ccncc2)CC1,-1.9,98.0,-14.5,33.3,99.1,i,1.35
Cn1c(CC(=O)NCCO)c(Sc2ccccc2)c2ccccc21,-2.0,109.0,-3.7,-69.2,132.8,i,0.95
COc1ccccc1CN1CCNC(=O)C1CC(=O)NCCCn1cccn1 (stereo not drawn),x,101.3,-2.6,x,x,i,0.88
CCOc1ccc(C(CC(=O)O)NC(=O)C23CC4CC(CC(C4)C2)C3)cc1OC (stereo not drawn),x,86.6,-3.1,15.0,104.9,i,0.91
O=C(C1CCCCC1)N1CCC(n2nnc3ccccc32)CC1,-0.9,101.7,-8.9,48.8,154.8,i,0.9
COc1ccccc1-c1nnc(SCC(=O)N2CCOCC2)o1,-2.2,97.7,-6.4,-35.0,136.3,i,0.89
CC(=O)NC(Cc1ccc(F)c(F)c1)C(=O)NC1CCN(C(=O)c2ccc(C)cc2)CC1 (stereo not drawn),x,105.6,-11.0,x,x,i,0.97
O=C(CSc1ncnc2c1oc1ccccc12)Nc1ccc2c(c1)OCCO2,-0.8,102.2,-3.0,50.0,120.9,i,0.99
O=C(NCc1cccnc1)c1ccccc1Br,-1.1,101.6,2.9,-63.6,106.6,i,0.84
CSc1nnc(SCC2=NNC(=O)SC2)s1,-1.7,110.2,-1.9,8.3,108.3,x,x
O=C(COC(=O)c1ccccc1S(=O)(=O)N1CCCCC1)NCC(F)(F)F,-1.6,104.5,36.0,45.5,53.0,i,0.98
Cc1ccc2c(c1)SC1=NC(c3ccccc3)(C(F)(F)F)NC(=O)N12 (stereo not drawn),-2.2,101.9,-10.1,-22.2,44.1,x,x
CCOc1ccc(NC(=S)NCc2ccc3[nH]c(C)cc3c2)cc1,x,104.5,0.3,45.5,93.0,i,0.94
CC1(C)CC(N=C2C([N+](=O)[O-])=CC=C3C2=NC2(CCCCC2)N3O)CC(C)(C)N1,x,100.5,x,x,x,i,0.89
CC(C)(C)CC(=O)NCCc1csc(-c2ccccc2)n1,x,107.0,x,x,x,i,0.95
Cc1c(NC(=O)OCCNC(=O)Nc2ccccc2)sc(=S)n1C,-1.8,101.5,-0.2,-16.7,82.0,i,1.09
O=C(NC(=O)N1CCCc2ccccc21)c1ccccc1,x,100.6,-4.9,x,x,i,1.04
Cc1cc(NC(=O)CSc2nc3c(c(=O)n2-c2ccc(Br)cc2)SCC3)no1,-2.3,35.8,-7.7,-186.7,136.9,i,0.9
CCCCC(CC)CNC(=O)C1CCCN(S(=O)(=O)c2cnc[nH]2)C1 (stereo not drawn),2.1,98.7,-21.7,x,x,i,0.98
COc1ccc(NC(=O)CN(c2ccc(C(C)C)cc2)S(=O)(=O)c2c(C)noc2C)cc1OC,-0.9,97.8,-11.7,x,x,i,0.91
Cc1nc2sccn2c(=O)c1Br,-0.9,95.2,-10.6,x,x,i,1.3
COc1cc2oc(-c3ccc(O)cc3)cc(=O)c2c(OC)c1O,x,100.7,x,x,x,i,0.77
COCCN1C(=O)/C(=C/c2cc3c(cc2Br)OCO3)NC1=S,x,105.9,0.9,-40.0,75.0,i,1.09
Cc1cc(C2=NNC(=NC3CC3)SC2)c(C)n1-c1c(C)n(C)n(-c2ccccc2)c1=O,-2.1,111.9,-8.8,0.0,84.4,i,1.06
O=C(CCN1C(=O)c2ccccc2C1=O)N1CCC(c2ccccc2)C1 (stereo not drawn),-3.8,101.6,-8.2,26.0,25.4,i,0.95
O=C(OCC(CO)OC(CO)n1ccc(=O)[nH]c1=O)c1ccccc1 (stereo not drawn),1.1,99.7,4.5,-78.6,115.2,i,1.01
O=C(CSc1nc2cc(Cl)ccc2o1)c1cccs1,-1.3,99.7,-5.8,x,x,i,0.763

# Continuation.
SMILES,GALR2 ag,RGS16-Gao,PKD1 kinase inh,Insulin prom inh,Insulin prom inh cell count,HSV replic up,HSV replic up primary fold
CCc1c(C)sc(NC(=O)c2cccs2)c1C#N,0.7,105.1,-2.4,-1.6,119.8,i,1.19
CCOC(=O)COc1cccc2c(=O)n(CC(=O)NCc3ccc(F)cc3)ccc12,x,99.1,x,x,x,i,0.83
CS(=O)(=O)N(Cc1ccccc1)c1ccccc1C(=O)O,-1.7,102.4,9.7,-10.7,82.6,i,1.03
Cc1ccc(CNC(=O)CS(=O)Cc2nc(-c3cccs3)oc2C)cc1 (stereo not drawn),-1.9,101.9,-2.5,x,x,i,1.15
O=C(Nc1ccc(Br)cc1F)C1CCCN(S(=O)(=O)c2cnc[nH]2)C1 (stereo not drawn),-2.6,104.6,-1.2,x,x,i,0.98
COC(=O)c1cc(C(=O)c2ccc(Cl)cc2)n2c(=O)/c(=C\N(C)C)sc12,x,103.2,-9.7,x,x,i,0.82
Cc1ccc(NC(=O)CN2C(=O)C3C4C=CC(C4)C3C2=O)cc1 (stereo not drawn),x,99.9,2.6,x,x,i,1
CCOC(=O)c1nn(-c2ccccc2C)c2nc(-c3ccc(Cl)cc3)c(C#N)c(=O)n12,-0.8,82.7,-4.4,-26.8,98.7,i,1.03
CCC1=NN(C(=O)c2ccc(Br)cc2)C(O)(c2ccc(C)cc2)C1 (stereo not drawn),-1.2,110.2,-1.5,25.0,88.1,i,0.93
O=C(/C=C/c1ccccc1)NCCN1CCOCC1,-0.8,107.0,5.9,-59.3,64.7,i,0.99
COc1ccc(C(=O)NCCCn2ccnc2)cc1,-2.0,103.0,3.5,21.4,67.1,i,1.09
O=C1CCCc2nn(-c3ccccc3)c(-c3ccncc3)c21,-3.6,101.4,-0.5,x,x,i,1.03
Cc1cc(NC(=O)CSc2nnc(-c3ccccc3)o2)no1,x,103.2,-2.5,20.0,113.3,i,0.78
O=C(Cn1ncc(Cl)c(Cl)c1=O)N1CCOCC1,x,101.0,-4.7,x,x,i,0.72
Cc1ccccc1OCCCC(=O)Nc1ccc(N2CCOCC2)cc1,-1.2,91.2,0.0,34.8,74.7,i,0.83
O=C(NNC(=O)C1CCN(S(=O)(=O)c2ccc(Cl)cc2)CC1)c1ccccc1,-2.0,81.1,-18.9,-29.7,111.6,i,1.04
Nc1nnc(SCCCC(=O)c2ccccc2)s1,-0.5,90.6,17.8,x,x,i,1.19
CCN(CC)C(=O)c1sc(NC(=O)c2ccc(OC)c([N+](=O)[O-])c2)c(C#N)c1C,-0.6,103.0,-8.8,-17.6,84.4,i,1.06
Cc1nn(C)cc1S(=O)(=O)Nc1ccc2c(c1)OCCO2,x,97.3,-0.6,x,x,i,0.8
Cc1ccc(C(=O)NC(=S)Nc2cccc3nsnc23)cc1,-2.0,102.2,-0.2,x,x,i,1.11
COc1ccc(NC(=O)CCl)cn1,x,104.5,x,x,x,i,1.27
O=C(CSc1ncccn1)N1CCCc2ccccc21,x,100.7,-8.3,-33.3,78.8,i,0.95
CC(C)(C)n1ncc2c(=O)n(CC(=O)N3CCCC3)cnc21,x,92.1,-1.5,-16.7,152.5,i,0.99
COC(=O)c1ccc(=O)c2nc3/c(=C/O)c(O)cc(=O)c3[nH]c12,x,80.3,x,x,x,i,0.84

# Grouped by structure: the entries above containing fluorine (6)
SMILES,GALR2 ag,RGS16-Gao,PKD1 kinase inh,Insulin prom inh,Insulin prom inh cell count,HSV replic up,HSV replic up primary fold
Cc1ccc(N(C(=O)C(F)(F)F)C(C(=O)NC2CCCCC2)c2cccs2)cc1C (stereo not drawn),-3.5,110.5,-5.2,0.0,144.9,i,1.09
CC(=O)NC(Cc1ccc(F)c(F)c1)C(=O)NC1CCN(C(=O)c2ccc(C)cc2)CC1 (stereo not drawn),x,105.6,-11.0,x,x,i,0.97
O=C(COC(=O)c1ccccc1S(=O)(=O)N1CCCCC1)NCC(F)(F)F,-1.6,104.5,36.0,45.5,53.0,i,0.98
Cc1ccc2c(c1)SC1=NC(c3ccccc3)(C(F)(F)F)NC(=O)N12 (stereo not drawn),-2.2,101.9,-10.1,-22.2,44.1,x,x
CCOC(=O)COc1cccc2c(=O)n(CC(=O)NCc3ccc(F)cc3)ccc12,x,99.1,x,x,x,i,0.83
O=C(Nc1ccc(Br)cc1F)C1CCCN(S(=O)(=O)c2cnc[nH]2)C1 (stereo not drawn),-2.6,104.6,-1.2,x,x,i,0.98
